From PubChem BioAssay
T cruzi repl = T. cruzi replication inhibition. inhibition, % (no concentration beside the values). 300,000 compounds, 1.4% hits. T. cruzi beta-gal in NIH3T3, luminescence, 90 h;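 active = mean inhibition across valid replicates above about 55%, limit read from the data; inconclusive = mean below that limit but half or more replicates reach it; inactive = mean below it, under half of replicates reach it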;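 also: signal also drops with host cell toxicity which is not excluded here; 0% = plate median of DMSO wells and 100% = zero luminescence signal; higher percent means less beta-gal luminescence so fewer parasites; stock transfer was 50 nL into about 50 µL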
RanGTP-Impb inh = inhibitors of RanGTP-importin-beta interaction, primary screen, biochemical, FRET, CFP-Ran, YFP-importin-beta, homogeneous; 300,000 compounds, 1.1% hits; inhibition, % (concentration not given with the values); cell-free CFP-Ran/YFP-importin-beta FRET ratio;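 active = most replicates above 15%; inconclusive = exactly half above 15%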;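 also: 0% = DMSO wells and 100% = Ran loaded with GDP instead of GTP; wells of about 40 µL received 100 nL stock; the first replicate is given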
Beta apoptosis = blocks beta cell apoptosis; INS-1E cytokine-induced death, ATP luminescence, 48 h; percent of positive-control rescue, neutral wells zero; protection from apoptosis, % (concentration not given with the values); 300,000 compounds, 0.8% hits; AID 435005;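 active = all replicates at 75% or more, or half of them and the mean; inconclusive = half reach 75% but not the mean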;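 also: 0% = cytokine-treated negative control wells and 100% = positive control rescue; higher means more ATP so stronger rescue from cytokine killing; wells of about 40 µL received 100 nL stock; the first replicate is given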
Beta2AR agonist = agonists of human beta-2 adrenergic receptor inducing internalization; Am2.2-beta2AR cells, FAP receptor internalization, flow cytometry; reference of the scale not given here; response, % (test concentration not listed); 340,000 compounds, 0.43% hits;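 active = response above a set limit, near 3 SD of response in nonfluorescent compounds, cut at about 42% in these data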;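 also: stock transfer was 100 nL into about 11 µL; a reference agonist was the positive control; negative values mostly stem from fluorescent compounds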
Calb FLC = affects C. albicans growth with fluconazole; 300,000 compounds, 0.57% hits; C. albicans CaCi-2 (fluconazole-resistant clinical isolate) + fluconazole, Alamar Blue growth, 48 h; growth inhibition, % (test concentration not listed);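 active = most replicates above 75%; inconclusive = exactly half above 75%; inactive = most below 75%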;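 also: all wells also contain fluconazole at 8 µg/ml as a sub-toxic cotreatment; 0% = median of DMSO wells and 100% = median of geldanamycin control wells; wells of about 8 µL received 7.5 nL stock; the first replicate is given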
LANA-H2A inh = blocks KSHV LANA binding to histone H2A/H2B | Q9QR71 | inhibition, % (concentration not given with the values) | 320,000 compounds, 0.6% hits | cell-free LANA-H2A/H2B peptide, fluorescence polarization; in the data active = inhibition mostly above about 10%, no sharp cut-off; inactive = mostly below about 6.7%;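 also: stock transfer was 7.5 nL into about 10 µL; 0% = median of vehicle wells and 100% = median of positive control wells; one replicate is shown; the record names a cut of 25% in any replicate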
Target sequence (Q9QR71 whole entry, looked up): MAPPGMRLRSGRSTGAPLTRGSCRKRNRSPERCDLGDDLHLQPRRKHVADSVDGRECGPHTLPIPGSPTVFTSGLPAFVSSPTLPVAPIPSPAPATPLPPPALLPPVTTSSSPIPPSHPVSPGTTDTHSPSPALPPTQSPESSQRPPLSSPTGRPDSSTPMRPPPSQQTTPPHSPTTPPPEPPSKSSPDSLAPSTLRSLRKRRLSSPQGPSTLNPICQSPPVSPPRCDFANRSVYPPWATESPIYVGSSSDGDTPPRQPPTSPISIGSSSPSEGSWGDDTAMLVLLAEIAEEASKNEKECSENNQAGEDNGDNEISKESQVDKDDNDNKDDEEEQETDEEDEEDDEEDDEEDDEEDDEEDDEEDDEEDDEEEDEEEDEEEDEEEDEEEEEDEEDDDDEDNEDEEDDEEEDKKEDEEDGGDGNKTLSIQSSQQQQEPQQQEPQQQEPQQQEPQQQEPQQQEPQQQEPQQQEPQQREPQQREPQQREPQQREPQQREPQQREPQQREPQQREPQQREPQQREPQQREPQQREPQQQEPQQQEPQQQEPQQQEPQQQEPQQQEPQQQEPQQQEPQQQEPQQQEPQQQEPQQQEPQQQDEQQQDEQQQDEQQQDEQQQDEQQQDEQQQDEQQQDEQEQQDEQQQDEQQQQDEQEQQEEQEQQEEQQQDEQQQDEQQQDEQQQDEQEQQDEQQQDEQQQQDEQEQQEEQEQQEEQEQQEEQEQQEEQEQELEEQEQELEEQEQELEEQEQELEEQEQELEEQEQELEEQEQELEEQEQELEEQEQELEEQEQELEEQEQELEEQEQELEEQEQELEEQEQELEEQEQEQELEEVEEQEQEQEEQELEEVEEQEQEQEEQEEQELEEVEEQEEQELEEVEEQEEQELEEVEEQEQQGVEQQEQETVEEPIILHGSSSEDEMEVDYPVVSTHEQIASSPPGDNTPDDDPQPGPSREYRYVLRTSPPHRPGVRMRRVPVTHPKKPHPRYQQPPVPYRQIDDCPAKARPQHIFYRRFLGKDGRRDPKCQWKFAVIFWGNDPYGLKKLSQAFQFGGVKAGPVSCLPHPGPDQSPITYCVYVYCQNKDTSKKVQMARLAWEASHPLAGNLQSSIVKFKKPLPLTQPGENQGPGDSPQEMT
Bfl-1 A1 inh = inhibitors of the anti-apoptotic protein A1, read as caspase activation | MEF A1-2A-BIM cells, Caspase-Glo 3/7 luminescence, 3 h; percent of clofoctol response, vehicle zero | caspase activation, % (no concentration beside the values) | AID 2462 | 330,000 compounds, 0.066% hits;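 active = over half of replicate activation scores above 10%, or exactly half above 10 with the replicate mean above 10; inconclusive = replicate mean below 10 yet half the replicates above 10; inactive = over half of replicates below 10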;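 also: wells of about 30 µL received 50 nL stock; many hits fall short of the cut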
UCH37 inh = human UCH37 deubiquitinating enzyme inhibition; Q9Y5K5; purified proteasome/UCH37, Ub-AMC cleavage fluorescence; inhibition, % (test concentration not listed); 330,000 compounds, 0.33% hits; AID 588478;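 active = mean of two replicates above 20%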;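 also: 0% = compound-free wells with enzyme and 100% = wells lacking proteasome; stock transfer was 100 nL into about 20 µL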
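Material: human UCH37 enzyme supplied as purified proteasome complex. Measure: % inhibition of Ub-AMC cleavage fluorescence. Medium: pH 7.4 Tris-HCl (50 mM) with ovalbumin, ATP-MgCl2, DTT. Times: 30 min preincubation with enzyme, 25 min cleavage at room temperature. Detection: AMC fluorescence intensity at 355/460 nm.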
* = called active by the depositor; i = inactive; ? = inconclusive; . = no result given.

molecule	T cruzi repl	RanGTP-Impb inh	Beta apoptosis	Beta2AR agonist	Calb FLC	LANA-H2A inh	Bfl-1 A1 inh	UCH37 inh
CCOC(=O)c1[nH]c(C)c(C(=O)C(C)C)c1C	-4	?	1	-2	2	-2.8	0.5	1.0
CCOc1cc(C2C(C(=O)OC)=C(C)N=C3SC(C)C(=O)N32)ccc1OC(C)=O (configuration not stated)	1	1.0	-1	-1	0	-2.0	0.4	2.8
O=C(Nc1ccccc1Cl)Nn1cnnc1	1	0.4	-1	2	16	-7.9	-0.3	0.8
Cc1ccc(NC(=O)CSCC(=O)N2CCN(c3cccc(C(F)(F)F)c3)CC2)cc1	4	-0.2	-5	-3	16	9.4	-0.4	5.2
Cc1ccc(S(=O)(=O)Nc2c(NC3CCCCC3)c3ccccc3oc2=O)cc1	26	1.1	8	0	6	2.1	-0.8	1.9
CCN(CC)c1ccc(C(=O)N/N=C/c2ccccc2OC(F)F)cc1	6	-2.8	80*	-6	?	-3.6	0.7	.
c1ccc(-n2ncc3c(NCc4cccs4)ncnc32)cc1	-1	4.6	0	-3	7	4.7	-1.1	5.3
Cc1ccc(CN2CCN(/N=C/c3cc(Br)cc(Br)c3O)CC2)cc1	11	-3.8	-2	-3	4	2.6	0.1	.
CCn1c2ccccc2c2cc(NC(=O)COC(=O)c3ccc(O)cc3)ccc21	10	0.6	3	9	-1	-0.4	0.3	-11
O=C(C1CC(=O)N(c2ccccc2)C1)N1CCN(C2=NS(=O)(=O)c3ccccc32)CC1 (configuration not stated)	-23	6.3	5	0	-3	0.3	0.2	0.3
O=C(Cc1ccccc1)NNC(=O)c1ccccc1C(=O)O	-2	-6.8	0	2	-10	3.3	0.2	0.7
O=C(/C=C/c1cccs1)N1CCC2(CC1)Oc1ccc(Cl)cc1C(=O)C21CC(c2ccc(Cl)cc2)=NO1 (configuration not stated)	24	-1.9	3	2	-4	-2.0	-0.1	1.1
O=C(N/N=C/c1ccccc1O)c1cc(=O)[nH]c2ccccc12	-7	1.1	.	.	2	-2.7	0.8	.
Cc1cc(NC(=O)C(C)SCC(=O)OCC(=O)Nc2c(C)cccc2C(C)C)no1 (configuration not stated)	.	.	1	0	.	-4.1	0.5	0.8
CCOC(=O)c1c(C)n(-c2ccc(OC)cc2)c2c(C/C(C)=N/O)c(Br)c(OC)c(O)c12	14	-0.4	1	9	18	.	0.5	.
CN1CCN(C(=S)NC(=O)c2ccccc2Br)CC1	-9	0.7	-9	3	9	-2.5	-0.6	-0.1
COc1ccc2[nH]c(C)c(C(=O)CN3CCc4cc(OC)c(OC)cc4C3)c2c1	39	-1.1	10	-1	1	-0.4	0.8	.
CC1(C)C[C@@H]2C[C@@](C)(CN2C(=O)c2cc(COc3cccc(C(F)(F)F)c3)on2)C1	33	7.6	104*	11	5	-2.5	1.9	1.0
CCCC/C(C)=N/NC(=O)CN(c1ccc(Br)cc1)S(=O)(=O)c1ccccc1	-10	?	-4	0	2	0.6	-0.3	.
Cc1cc(-c2ccc(S(=O)(=O)N3CCc4ccccc4C3)s2)on1	10	0.9	2	14	-6	1.3	0.1	1.9
COc1ccc(/C=C2/NC(=O)CNC2=O)cc1	4	-0.8	1	0	2	4.2	-0.1	3.7
Cc1c(-n2c(CN3C(=O)c4ccccc4C3=O)nc3ccccc3c2=O)c(=O)n(-c2ccccc2)n1C	-3	0.6	-4	-3	-4	-1.9	1.5	0.7
N#Cc1ccc(Oc2c(Cl)cncc2Cl)cc1	-7	2.8	.	1	0	3.3	1.4	2.8
Cc1ccc(Cn2c(N)nc3ccccc32)cc1	-1	-1.2	9	-6	-3	2.4	-0.8	.
COc1ccc(Cc2nnc(NC(=O)c3ccc(OC)c(OC)c3)s2)cc1	-2	-5.2	3	1	0	1.7	0.4	.

Further records:
molecule	T cruzi repl	RanGTP-Impb inh	Beta apoptosis	Beta2AR agonist	Calb FLC	LANA-H2A inh	Bfl-1 A1 inh	UCH37 inh
CSc1nc(-c2ccccc2)nc(N2CCCC2)c1C(C)=O	28	1.4	4	1	6	-0.2	-0.8	2.9
O=C(c1cccc(N2C(=O)C3C4C=CC(C4)C3C2=O)c1)N1CCCc2ccccc21 (configuration not stated)	-1	3.8	1	-4	-6	-3.2	0.6	5.0
O=C(/C=C/c1cccc([N+](=O)[O-])c1)Nc1ccccn1	12	-2.5	6	0	-2	2.0	-1.6	0.8
Cc1ccc(Sc2nc(-c3ccccc3)nnc2C(F)(F)F)cc1	29	?	-8	-2	-6	-3.5	.	5.0
COC(=O)c1sccc1NC(=S)Nc1ccccc1	-20	-0.3	-1	-5	-18	-1.0	-1.0	1.6
CCCCNC(=O)CC1NCCNC1=O (configuration not stated)	-5	-1.0	-5	1	-13	-4.1	0.7	1.0
CCc1ccccc1NC(=O)c1ccc2c(O)c(S(=O)(=O)c3ccc(OC)cc3)c(=O)[nH]c2c1	-4	3.5	.	-9	2	-1.8	0.5	1.3
N#Cc1ccc(CSc2nnc(-c3cnccn3)o2)cc1	-18	1.5	3	-3	34	2.3	0.3	6.4
Cc1cccn2c(=O)c3cc(C(=O)NC4CCCC4)c(=N)n(C4CCCCC4)c3nc12	?	175*	8	14	?	5.7	0.7	i
CCOC(=O)CCCCCNC(=O)c1ccc(F)cc1F	-23	?	-1	-3	-6	-5.8	?	2.4
Cc1ccc(S(=O)(=O)N(C)CC(=O)Nc2cccnc2)cc1	-6	-1.6	-8	-2	-6	1.6	0.3	2.3
COc1cc(OC)c(S(=O)(=O)Nc2ccccc2N2CCCCC2)cc1NC(C)=O	-3	-2.5	-3	-4	5	5.9	0.3	2.7
COc1ccc(C2(C(=O)Nc3ccc(OC)cc3OC)CCCC2)cc1	10	1.3	-4	8	10	17	0.4	4.9
C=CCN(C(=O)CCC(=O)Nc1cc(C)on1)C(C(=O)NC(C)(C)CC)c1cccc(OC)c1OC (configuration not stated)	9	1.7	3	3	8	6.0	-1.0	2.0
COC(=O)C1=C(C(=O)OC)[C@@H]2N(Cc3ccccc3)c3ccccc3[C@@]23C[C@@H](C(=O)OC)N(C(=O)c2cc(C)oc2C)C3=N1	11	-1.4	2	8	12	0.1	0.7	3.2
Cc1nc2c(=O)n(-c3ccc(F)cc3F)nc(C)c2s1	2	-3.8	-1	-8	-1	-2.3	0.5	2.3
CCOCCCN(C)C1CCN(C(=O)c2oc3ccccc3c2NC(=O)c2ccc(F)cc2)CC1	56*	6.8	-3	-12	-6	-1.3	-1.4	.
Cc1cccc(C(=O)Oc2ccccc2/C=N/NC(=O)c2ccc(NC(=O)C(C)(C)C)cc2)c1	0	-2.8	19	2	5	-5.1	0.9	.
O=C(NCc1nc2ccccc2[nH]1)C1=C[C@H](C2CC2)C[C@H](OCc2ccc(CO)cc2)O1	8	1.3	-14	-7	-8	3.4	0.2	1.2
CCN1C(=O)[C@H]2[C@@H](c3ccc(C)cc3)N3C(=O)N(c4ccc(OC)cc4)C(=O)[C@@]3(Cc3ccccc3)[C@H]2C1=O	-9	-5.5	-9	-14	1	1.6	1.4	4.7
CCOC(=O)C1=C(O)C(=O)N(c2ccc(S(N)(=O)=O)cc2)C1c1ccc(Br)cc1 (configuration not stated)	-1	1.1	1	1	34	0.6	0.8	-3.6
C=C(C(=O)c1ccccc1)C(C(=C)C(=O)c1ccccc1)c1ccc(OC)cc1	55*	4.1	111*	3	2	6.4	-0.8	5.4
O=C(N=C1c2ccccc2CN1c1cccc(Cl)c1)c1cccnc1	-32	3.7	-1	-1	8	-3.8	-2.2	3.3
c1ccc(N2CCN(CCc3nnc4n3CCCCC4)CC2)cc1	-8	-4.3	-4	0	-4	-1.4	0.4	-1.3
COc1ccc(-c2[nH]ncc2-c2ccc(Cl)cc2)c(O)c1	-6	-0.5	0	3	9	-2.5	0.0	2.1

More compounds follow:
molecule	T cruzi repl	RanGTP-Impb inh	Beta apoptosis	Beta2AR agonist	Calb FLC	LANA-H2A inh	Bfl-1 A1 inh	UCH37 inh
COCCn1c(=S)[nH]c2cc(C(=O)N3CCc4ccccc43)ccc2c1=O	-16	-0.7	37	2	-9	-1.2	0.0	3.8
CCOC(=O)CC(=O)NC1(Cc2ccc(O)cc2)CCCCC1	-10	1.1	-1	16	16	-3.0	-0.1	6.5
OCCn1nc(-c2ccccc2)cc1-c1ccccc1	-13	1.3	-2	-3	-5	-3.9	0.2	2.5
O=C1C2CC=CCC2C(=O)N1c1cccc(OS(=O)(=O)c2ccc3ccccc3c2)c1 (configuration not stated)	0	2.9	0	-1	3	5.5	-0.1	1.8
COc1ccccc1-c1c(C)oc2cc(OC(=O)c3ccco3)ccc2c1=O	-18	-1.8	3	0	-21	-0.3	0.6	-233
N#Cc1c(N)[nH]c(=S)c(C#N)c1-c1ccccc1	3	31*	-12	6	5	-2.0	0.1	4.0
COc1cccc(OCc2cc(C(=O)N3CCCC3c3ccccn3)no2)c1 (configuration not stated)	-5	0.1	1	13	1	4.4	0.2	0.4
CCN=C1NN=C(c2cc(C)n(Cc3ccco3)c2C)CS1	1	-1.3	-5	9	-13	6.3	-0.5	7.4
O=C(NCCCc1ccccc1)c1cc(COc2c(F)cccc2F)on1	2	2.7	5	-1	18	2.9	0.4	1.8
CCOc1nc2ccccc2nc1NS(=O)(=O)c1ccccc1	-14	?	-6	6	15	-1.9	-0.2	-0.1
CNC[C@H](CC1CCCCC1)NC[C@H](NCCC1CCCC1)[C@H](C)O	-7	-0.1	1	3	-17	0.8	1.2	3.1
COC(=O)c1ccccc1NC(=O)CSc1nnnn1-c1ccc(C)cc1C	4	7.0	-3	-4	5	0.5	0.3	2.4
CCN1C(=O)[C@H]2[C@@H](c3ccc(Cl)cc3)N3C(=O)CN(CC4CC4)C(=O)[C@@]3(Cc3ccccc3)[C@H]2C1=O	-10	1.2	0	1	6	5.5	0.6	0.9
Cc1cc(C(=O)COC(=O)CCc2nc3ccccc3c(=O)[nH]2)c(C)n1CC1CCCO1 (configuration not stated)	-4	4.3	-1	.	17	-4.4	0.7	3.0
Cc1cccc(NC(=O)CSc2ncnc3nc[nH]c23)c1C	-8	-3.1	-3	-5	1	-2.1	-0.2	0.4
CN(C)c1ccc(N=Cc2nc(-c3ccccc3)oc2O)cc1	29	-15	0	3	6	-9.6	-4.4	8.1
Cc1[nH]c(C)c(S(=O)(=O)Nc2ccccc2Cl)c1C(=O)N1CCCC1	-14	-4.7	-4	5	?	6.5	2.8	0.7
Cc1cc(C(=O)Nc2ccc3nc(C)sc3c2)c2ccccc2n1	-14	-0.9	0	1	4	-0.3	-0.5	-0.3
CCCc1nc(NCCO)c(C#N)c2c1CCCC2	5	1.8	.	-1	12	-3.1	0.5	-39
O=C(CSc1ccc(-c2ccc(Cl)cc2)nn1)NC1CCCC1	15	1.2	5	1	-3	1.3	0.3	4.0
Cc1ccc(-c2n[nH]c(=S)c3ccccc23)cc1	-25	-2.0	4	3	0	-4.0	0.5	3.9
NNC(=O)CN1C(=O)Nc2ccc(Br)cc2C1c1ccccc1 (configuration not stated)	-3	0.4	-22	-7	-10	-2.5	-0.4	2.9
